Bioassay records (PubChem BioAssay)
TRPML1 agonist = qHTS for Agonists of the Human Mucolipin Transient Receptor Potential 1 (TRPML1) | Mucolipin-1 (Homo sapiens), Q9GZU1 | TRPML1-expressing cells, Ca2+ dye fluorescence, FDSS; host cell line not named in the record; reference of the full effect not given here | activation, % (no concentration beside the values) | actives 0.12% (n = 410,000) | AID 624414, 2012; in the data active = activation above about 50%; inconclusive = about 30% to 50%; inactive = below about 30%; note: 0% is about no effect; the text of the record puts the active cut at 80%
Target sequence (Q9GZU1 whole entry, looked up): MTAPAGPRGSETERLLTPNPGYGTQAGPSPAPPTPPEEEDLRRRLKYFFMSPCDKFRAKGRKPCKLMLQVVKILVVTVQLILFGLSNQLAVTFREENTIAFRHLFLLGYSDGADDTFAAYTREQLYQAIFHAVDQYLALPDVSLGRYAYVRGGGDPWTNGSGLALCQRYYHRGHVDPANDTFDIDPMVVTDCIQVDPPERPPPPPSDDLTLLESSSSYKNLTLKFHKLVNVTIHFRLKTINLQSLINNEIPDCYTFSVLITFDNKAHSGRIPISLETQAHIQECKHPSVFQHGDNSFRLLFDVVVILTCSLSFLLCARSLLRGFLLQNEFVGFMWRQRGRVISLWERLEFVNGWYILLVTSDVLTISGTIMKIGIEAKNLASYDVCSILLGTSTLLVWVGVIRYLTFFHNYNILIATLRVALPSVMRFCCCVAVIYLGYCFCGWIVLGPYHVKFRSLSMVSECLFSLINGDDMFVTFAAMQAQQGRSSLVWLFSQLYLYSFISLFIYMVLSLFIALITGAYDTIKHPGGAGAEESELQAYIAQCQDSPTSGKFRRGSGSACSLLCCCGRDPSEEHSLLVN
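Tet-induced TRPML1-DL cells, 1,500 per well, cultured overnight, were loaded with a no-wash Ca2+ dye for 45–90 min. Calcium fluorescence was recorded on the FDSS for 110 s after compound addition, before the EC80 agonist (4 uM 54-4) was added.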
PINK1 modulator = A Quantitative High throughput Screen to Identify Chemical Modulators of PINK1 Expression. PINK1 immunofluorescence, high-content cytometry, 24 h. Potency, µM (series often up to 76.6 µM), inactives show at the highest dose activation (PINK1 increase), usual class: activators. actives 0.2% (n = 410,000); active = well fitted activation curve with a large enough effect; inconclusive = small, poorly fitted or top-dose-only effect; inactive = flat fitted curve, though single readings scatter; cell line not stated here;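 note: potency is the fitted concentration of half-maximal effect; % of control where 0% means no effect; nearly all actives have a fitted effect of over 65% in size; a mitochondrial uncoupler was the plate control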
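Stable cell line, 250 cells/well, 12 h attachment; compounds pinned at 5 concentrations, 24 h; CCCP control. Fixed with nuclear dye, primary antibodies 12 h at 10 degrees C, secondary plus cell stain; laser-scanning cytometer read.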
* marks the source's active call; other numbers are inactive results; ? = inconclusive; & = joins results of further samples. Not all compounds are listed; rates above refer to the full screens.

molecule | TRPML1 agonist | PINK1 modulator
Cc1ccccc1NC(=O)c1ccccc1OCC(=O)Nc1ccc(Br)cc1 | -0.3 | 0.6%
Cc1c(C=O)ccc(N(C)C)c1C | -0.9 | 1.1%
COc1cc(OC)c(-c2nn3c(-c4n[nH]c5c4CCC5)nnc3s2)cc1OC | -0.6&-0.3 | ?
COc1ccc(N2C(=O)c3ccccc3NC2c2ccc(OC)c(COc3ccccc3F)c2)cc1 (stereo not given) | 0.2 | 2.3%
Cc1ccc(S(=O)(=O)N2CCN(c3nc(-n4c(=O)[nH]c5ccccc54)nc4ccccc34)CC2)cc1 | -0.1 | 0.0%
CNc1c(Br)cc(C(O)C2=CCc3ccccc32)cc1Br (stereo not given) | -0.3 | 3.0%
COc1cc(/C=C/c2cc[n+](C)c3ccccc23)cc(OC)c1OC | -0.3 | 0.4%
CCc1ccc(NC(=O)CSc2nnc(-c3ccc(N)cc3)n2C)cc1 | -0.8 | 0.1%
CC1(C)CCc2cc(S(=O)(=O)N3CCN(c4nc(-c5cccs5)nc5ccccc45)CC3)ccc2O1 | 0.1 | -0.3%
CC(C)C(=O)Nc1nc2c(ncn2[C@H]2CC(O)[C@@H](CO)O2)c(=O)[nH]1 (stereo not given in full) | -0.3 | -1.0%
CCOc1nc(C#N)nc(N(c2ccccc2)c2ccccc2)n1 | -0.8 | 0.4%
CC/C=C1/N=C2C(=O)N(C)C(=O)N=C2N(C)N1 | -0.4 | 1.2%

Random excerpt: 3 records from the list.
molecule | TRPML1 agonist | PINK1 modulator
Cc1ccc(S(=O)(=O)N2CCN(c3nc(-n4c(=O)[nH]c5ccccc54)nc4ccccc34)CC2)cc1 | -0.1 | 0.0%
COc1ccc(N2C(=O)c3ccccc3NC2c2ccc(OC)c(COc3ccccc3F)c2)cc1 (stereo not given) | 0.2 | 2.3%
COc1cc(/C=C/c2cc[n+](C)c3ccccc23)cc(OC)c1OC | -0.3 | 0.4%

(next part)
molecule | TRPML1 agonist | PINK1 modulator
COc1cc(/C=C/c2ccc3ccccc3[n+]2C)cc(OC)c1OC | -0.3 | 2.1%
OCc1nc2ccccc2[nH]1 | -0.2 | 0.2%
Nc1cccc(/C=C2\C=Cc3ccccc32)c1 | -0.3 | 1.3%
O=C(CNC(=O)C1CCCCC1)OCC(=O)c1ccc(C2CCCCC2)cc1 | -0.5 | 1.1%
O=C(Nc1ccc2nc(-c3ccccn3)c(-c3ccccn3)nc2c1)N1CCCC1 | 0.4 | 0.2%
COc1ccccc1CC(=O)NO | 0.3 | 0.3%
CCCCCCCCCN(CCCCCCCCC)c1ccc(/C=C/c2ccnc3ccccc23)cc1 | 0.8 | 0.6%
Cc1ccnc2ccc(F)cc12 | -0.2 | 0.3%
O=C(C[n+]1cccc(Br)c1)c1cccc([N+](=O)[O-])c1 | -0.3 | -0.2%
C=C1C=C(C)n2ncc(C(=O)Nc3ccc(F)cc3F)c2N1 | -0.9 | 2.1%
CN1CC[C@H](CN2c3ccccc3Sc3ccccc32)C1 | 1.6 | 1.7%
C1NNCC12CNNC2 | -0.5 | 1.6%
Cc1c(/C=C/c2ccnc3ccccc23)ccc(N(C)C)c1C | 2.2 | 1.9%
CCOc1ccc(/C=C/c2ccnc3ccccc23)cc1OCC | 0.0 | 4.9%
Cc1cc(/C=C2\C=Cc3ccccc32)ccc1N(C)C | -0.4 | 5.2%
S=c1ncc2n[nH]nc2[nH]1 | -0.9 | 0.8%
Nc1ccc(-c2nc3ccc(-c4nc5ccc(N)cc5[nH]4)cc3[nH]2)cc1 | -0.6 | -1.1%
CC(C)CCOc1ccc(CC(=O)NO)cc1 | -0.7 | 1.0%
CN(C)c1ccc(CC2CCc3ccccc32)cc1 (stereo not given) | -0.1 | 2.1%
CC(=O)Nc1ccc(/C=C2\C=Cc3ccccc32)cc1 | 0.7 | 2.5%
Cn1cc(/C=C/c2ccnc3ccccc23)c2ccccc21 | 11 | -0.2%
Cc1ccc(F)cc1NC(=O)COC(=O)c1ccc(S(C)(=O)=O)c([N+](=O)[O-])c1 | -0.2 | 3.1%
COc1cccc2cc(-c3nc(-c4ccccc4)c(C)s3)c(=O)oc12 | 0.3 | -0.3%
Cc1ccc(NC(=O)c2ccc(-n3nncc3-c3ccccc3)cc2)cc1 | -0.2 | 1.7%
CS(=O)(=O)c1ccc(NC(=O)COc2ccccc2C(=O)Nc2ccccc2)cc1 | 0.8 | 0.3%
CN(C)c1ccc(/C=C/c2ccnc3ccc(I)cc23)cc1 | ? | 2.1%
O=c1[nH]c(=O)n([C@@H]2O[C@H](CO)[C@@H](O)[C@H]2O)cc1F | -0.2 | 1.9%
Cc1cnc2ccc(I)cc2c1/C=C/c1ccc(N(C)C)cc1 | 3.3 | 4.9%
CCSc1ncnc2nc[nH]c12 | -0.9 | 1.1%
O=C(NNc1ccc(F)cc1F)c1cccs1 | -0.4 | 0.6%
O=C(C[n+]1ccc(Cl)c2ccc(Cl)cc21)c1ccc(F)cc1 | 0.1 | -0.7%
O=C(Nc1cc(Cl)cc(Cl)c1)c1cnn2c1NC(=C1CC1)C=C2C(F)F | -0.7 | -0.5%
Oc1c(C(Nc2cccnc2)c2ccc(C(F)(F)F)cc2)ccc2cccnc12 (stereo not given) | 1.4 | 2.3%
C=C1C=C(C(F)F)n2ncc(C(=O)Nc3cccc(CC)c3)c2N1 | -0.3 | 0.6%
Cc1ccc(CNc2ncnc3[nH]ncc23)o1 | -0.2 | 0.7%
CN(C)C(=O)COC(=O)c1ccccc1OCC(=O)Nc1ccc(Br)cc1 | -0.3 | 0.7%
Oc1cc2cc(-c3csc(-c4ccc(F)cc4)n3)cc3c2n1CCC3 | -1.0 | -0.4%
Cc1c(O)ccc2c1OC(C)(C)CC2 | -0.8 | 0.7%
O=C(Nc1ccc([N+](=O)[O-])cc1Cl)c1cc(Cl)cc(Cl)c1O | 1.7 | ?
CCCCCCNc1ccc(/C=C/c2ccnc3ccccc23)cc1 | 18 | 7.6%
O=C(NNc1cc(Cl)cc(Cl)c1)c1sccc1Cl | -0.5 | 4.7%
COc1ccc(-c2sc(N)nc2-c2ccccc2)cc1 | 0.0 | 0.8%
CCCCN(Cc1ccc(Cl)c(Cl)c1)c1ccc(Br)cn1 | 0.4 | 0.9%
CCc1ccc2[nH]c(=O)c(CN(Cc3ccccc3)Cc3nnnn3Cc3ccccc3)cc2c1 | 0.4 | 5.2%
O=S(=O)(c1ccc(Cl)cc1)N1CCN(c2nc(-c3ccccc3)nc3ccccc23)CC1 | -0.7 | -0.1%
NS(=O)(=O)c1ccc(NC(=O)c2cnn3c2NC(=C2CC2)C=C3C(F)F)cc1 | -0.6 | 0.6%
CCc1ccc(NC(=O)COC(=O)c2ccccc2OCC(=O)N(C)C)cc1 | -0.8 | -1.1%
O=S(=O)(c1ccc(C(F)(F)F)cc1)N1CCN(c2nc(-c3ccccc3)nc3ccccc23)CC1 | -0.8 | -1.2%
O=C(COC(=O)CNC(=O)C1CCCCC1)NC1CC1 | -0.8 | -0.2%
CN(C)c1ccc(N=Cc2ccnc3ccccc23)cc1 | 15 | 2.6%
CCCN1CNc2c(c(=O)[nH]c(=S)n2CCC)C1 | -0.2 | -0.3%
CCCCCN(CCCCC)c1ccc(/C=C/c2ccnc3ccccc23)cc1 | 13 | 0.4%
C=C1NN(CC#N)C(=O)N1c1ccc(OCc2ccccc2)cc1 | -0.2 | -1.0%
CCCN1CNc2c(c(=O)[nH]c(=S)n2CCc2cc(Cl)cc(Cl)c2)C1 | -0.5 | 0.4%
O=c1[nH]c(=O)n([C@H]2C[C@@H](O)[C@@H](CO)O2)cc1F | -0.2 | -1.2%
O=C1Nc2ccc(I)cc2C1=Cc1cc(Br)c(O)c(Br)c1 | 9.9 | -0.6%
c1ccc(Nc2nc(NCc3ccco3)nc3nccnc23)cc1 | 0.3 | ?
C(=Nc1ccc(/C=C/c2ccnc3ccccc23)cc1)c1cc2c3c(c1)CCCN3CCC2 | 1.6 | -0.9%
O=C(C[n+]1ccccc1Br)c1ccc(I)cc1 | -0.5 | -0.5%
COc1ccc(S(=O)(=O)N2CCN(c3nc(-c4cccs4)nc4ccccc34)CC2)cc1 | 0.6&-0.8 | 0.0%&-0.5%

Entries of single compounds, quoted from the list.
`CCCN1CNc2c(c(=O)[nH]c(=S)n2CCC)C1` in the list: TRPML1 agonist = -0.2; PINK1 modulator = -0.3%
`O=C(C[n+]1ccccc1Br)c1ccc(I)cc1` in the list: TRPML1 agonist = -0.5; PINK1 modulator = -0.5%

Later entries:
molecule | TRPML1 agonist | PINK1 modulator
O=[N+]([O-])c1ccccc1/C=C1\C=Cc2ccccc21 | -0.2 | 2.6%
O=C(Nc1ccc(Cl)cc1Cl)c1cnn2c1NC(=C1CC1)C=C2C(F)F | 0.1 | -0.9%
O=c1[nH]c(=S)c2n[nH]nc2[nH]1 | -0.7 | 0.4%
C(=C\c1ccnc2ccccc12)/c1cc2c3c(c1)CCCN3CCC2 | -1.1 | -0.1%
CN(C)c1ccc(Cn2ccc3ccccc32)cc1 | 0.2 | 0.3%
O=C(c1cccc(Cl)c1Cl)N(Cc1ccco1)Cc1cccs1 | -0.8 | -0.2%
Cn1c2c(c3cnc4cc(Cl)ccc4c31)CN(Cc1ccc(Cl)cc1)CC2 | 0.2 | 1.2%
N=c1nc(-c2ccccc2)n(-c2ccccc2)s1 | -0.8 | -0.5%
Cc1c(CCO)sc[n+]1CC(=O)c1ccc2ccccc2c1 | -0.4 | -0.4%
C1=Cc2ccccc2/C1=C/c1ccc2c(c1)OCO2 | -0.3 | 1.9%
CC(C)(C)c1ccc(C(=O)C[n+]2ccccc2Cl)cc1 | -0.3 | 0.6%
COc1cc(OC)c(OC)cc1/C=C/c1ccc2ccccc2[n+]1C | -0.7 | ?
Cc1c(O)c2c(c(C(=O)/C=C/c3ccccc3)c1O)OC(C)(C)C=C2 | -0.7 | 3.9%
C(=Nc1ccc(/C=C/c2ccnc3ccccc23)cc1)c1ccco1 | 10 | 0.4%
COc1ccc(/C=C/c2ccc3ccccc3[n+]2C)c(OC)c1OC | 2.0 | ?
Cc1csc(NCC(=O)c2c(C)[nH]c3ccccc23)n1 | -0.6 | -0.9%
CCCCCCCCCCN(CCCCCCCCCC)c1ccccc1 | -0.3 | 0.1%
Cc1ccc(S(=O)(=O)N2CCN(c3nc(-c4cccs4)nc4nc[nH]c34)CC2)cc1 | -0.4 | 1.8%
O=S(=O)(Cc1ccccc1)N1CCN(c2nc(-c3cccs3)nc3ccccc23)CC1 | 0.0 | 1.0%
COc1cc2c(NC3CCN(C)CC3)nc(N3CCCN(C)CC3)nc2cc1OCCCN1CCOCC1 | -0.4 | -0.8%
Cc1cccc2c(=O)[nH]c3c(-c4nc(-c5ccc(Cl)cc5)cs4)c(O)cn3c12 | -0.4 | 6.7%
CC(=O)c1ccc(S(=O)(=O)N2CCN(c3nc(-c4cccs4)nc4ccccc34)CC2)cc1 | -0.6 | 1.0%
C[n+]1c(/C=C/c2ccc(N)cc2)sc2ccccc21 | -0.2 | 0.4%
CN(C)c1ccc(/C=C/c2nc3ccccc3s2)c(Cl)c1 | 15 | 6.3%
CC1(C)OC(=O)C2(Cc3ccc(Cl)cc3N3CCCCC32)C(=O)O1 (stereo not given) | -1.0 | 0.7%
Nc1[nH]c(=S)[nH]c(=O)c1N=O | -0.6 | -0.3%
CCC[n+]1c(/C=C/c2c(OC)cc(OC)cc2OC)ccc2ccccc21 | 7.9 | ?
O=S(=O)(c1ccccc1C(F)(F)F)N1CCN(c2nc(-c3cccs3)nc3ccccc23)CC1 | 0.0 | -0.4%
O=S(=O)(c1ccccc1Cl)N1CCN(c2nc(-c3cccs3)nc3ccccc23)CC1 | -0.6&-0.1 | -0.7%&0.3%
CCCCNC(=O)Cn1c(SCc2cccc(Cl)c2)nc2ccncc21 | -0.7 | 0.2%
Nc1nc(NCc2cccc(Cl)c2)c2[nH]cnc2n1 | -0.9&-0.5 | 4.2%&-0.7%
COC1=C2C[C@H](C)C[C@H](OC)[C@@H](O)[C@@H](C)C=C(C)[C@H](OC(N)=O)[C@@H](OC)C=CC=C(C)C(=O)NC(=CC1=O)C2=O | -0.1 | 0.3%
O=S(=O)(O)c1ccc2c(N=Nc3ccc(S(=O)(=O)O)c4ccccc34)c(O)c(S(=O)(=O)O)cc2c1 | -0.9 | -0.5%
COc1ccc(/C=c2\[nH]c(=O)/c(=C/c3ccc(OC)c(OC)c3)[nH]c2=O)cc1OC | -0.2 | -0.1%
